# T cruzi inh: blocks replication of Trypanosoma cruzi. AID 1885. T. cruzi beta-gal in NIH3T3, luminescence, 90 h. hit rate 1.4% among 300,000. inhibition, % (no concentration beside the values);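 active = mean inhibition across valid replicates above about 55%, limit read from the data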;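 note: signal also drops with host cell toxicity which is not excluded here; 0% = plate median of DMSO wells and 100% = zero luminescence signal; higher percent means less beta-gal luminescence so fewer parasites; stock transfer was 50 nL into about 50 µL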
# UCH37 inh: human UCH37 deubiquitinating enzyme inhibition; purified proteasome/UCH37, Ub-AMC cleavage fluorescence; inhibition, % (test concentration not listed); hit rate 0.33% among 330,000;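 active = mean of two replicates above 20%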;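 note: 0% = compound-free wells with enzyme and 100% = wells lacking proteasome; stock transfer was 100 nL into about 20 µL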
# Target sequence (Q9Y5K5 whole entry, looked up): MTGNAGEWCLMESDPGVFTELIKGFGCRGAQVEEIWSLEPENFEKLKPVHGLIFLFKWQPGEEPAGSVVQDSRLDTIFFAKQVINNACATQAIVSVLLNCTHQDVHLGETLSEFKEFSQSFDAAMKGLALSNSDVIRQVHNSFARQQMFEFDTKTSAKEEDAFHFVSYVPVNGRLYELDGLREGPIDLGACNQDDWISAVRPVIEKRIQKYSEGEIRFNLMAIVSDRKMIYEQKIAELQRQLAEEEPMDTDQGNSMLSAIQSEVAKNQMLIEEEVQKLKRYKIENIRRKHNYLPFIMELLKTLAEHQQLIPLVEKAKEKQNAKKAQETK
#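 Material: Human UCH37 enzyme supplied as purified proteasome complex | Schedule: 30 min preincubation with enzyme, 25 min cleavage at room temperature | Detection: AMC fluorescence 355/460 nm | Measure: % inhibition of Ub-AMC cleavage fluorescence | Controls: Wells without proteasome as full block, compound-free enzyme plus substrate as uninhibited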
# FGF22 binding: binders of recombinant human FGF22 by thermal shift; Q9HCT0; SYPRO orange fluorescence; percent of sucrose octasulfate shift, DMSO zero; calls only at 9.99 µM; hit rate 1.5% among 340,000;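 active = melting point raised past a set limit in the mean and every replicate; three in four hits are not shown here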
# Target sequence (Q9HCT0 whole entry, looked up): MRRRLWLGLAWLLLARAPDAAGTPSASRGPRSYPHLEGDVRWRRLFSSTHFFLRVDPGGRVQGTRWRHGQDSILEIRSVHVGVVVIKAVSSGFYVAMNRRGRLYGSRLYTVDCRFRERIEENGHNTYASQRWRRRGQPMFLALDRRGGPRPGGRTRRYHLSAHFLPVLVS
# Beta cell apopt: beta cell apoptosis inhibition | INS-1E cytokine-induced death, ATP luminescence, 48 h; percent of positive-control rescue, neutral wells zero | hit rate 0.8% among 300,000 | AID 435005 | protection from apoptosis, % (concentration not given with the values);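 active = all replicates at 75% or more, or half of them and the mean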;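 note: 0% = cytokine-treated negative control wells and 100% = positive control rescue; higher means more ATP so stronger rescue from cytokine killing; wells of about 40 µL received 100 nL stock; the first replicate is given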
# Bfl-1 A1 inh: inhibitors of the anti-apoptotic protein A1, read as caspase activation. hit rate 0.066% among 330,000. MEF A1-2A-BIM cells, Caspase-Glo 3/7 luminescence, 3 h; percent of clofoctol response, vehicle zero. caspase activation, % (concentration not given with the values);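 active = over half of replicate activation scores above 10%, or exactly half above 10 with the replicate mean above 10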;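 note: wells of about 30 µL received 50 nL stock; many hits fall short of the cut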
# Ecoli growth: blocks Escherichia coli growth; OD600, 23 h; stronger effect = lower value; OD600 absorbance (test concentration not listed); hit rate 0.21% among 330,000; AID 1053175;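 active = OD600 absorbance below the run mean of sample wells minus 3.6 SD, in any replicate, cut at about 0.56 in these data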;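 note: stock transfer was 300 nL into about 60 µL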
# Ecoli rRNA inh: inhibitors of bacterial rRNA selective over humanized ribosomes | GFP signal change (wild-type ribosome), % (no concentration beside the values) | AID 720706 | hit rate 1.6% among 350,000 | E. coli WT GFP vs humanized-ribosome RFP mutants, fluorescence, 24 h; stronger effect = lower value; DMSO median 0, no signal -100;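 active = significant combined selectivity score with lowered wild-type GFP, culture density cut under 30%, mutant RFP and density less affected; inactive = any of these conditions unmet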; note: one replicate is shown; some compounds called inactive have numbers as strong as hits
# AF4-AF9 inh: inhibitors of human MLL-AF4/AF9 interaction | P42568 | AlphaScreen, biotin-AF4 peptide binding to FLAG-AF9 | inhibition, % at 10 µM | hit rate 0.47% among 350,000 | AID 651704;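 active = every replicate reaching a set inhibition limit, whatever the replicate mean, cut at about 25% in these data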;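 note: 0% = plate neutral control median and 100% = total signal loss; the record names both 10 and 1 µM as test concentration; the first replicate is given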
# Target sequence (P42568 whole entry, looked up): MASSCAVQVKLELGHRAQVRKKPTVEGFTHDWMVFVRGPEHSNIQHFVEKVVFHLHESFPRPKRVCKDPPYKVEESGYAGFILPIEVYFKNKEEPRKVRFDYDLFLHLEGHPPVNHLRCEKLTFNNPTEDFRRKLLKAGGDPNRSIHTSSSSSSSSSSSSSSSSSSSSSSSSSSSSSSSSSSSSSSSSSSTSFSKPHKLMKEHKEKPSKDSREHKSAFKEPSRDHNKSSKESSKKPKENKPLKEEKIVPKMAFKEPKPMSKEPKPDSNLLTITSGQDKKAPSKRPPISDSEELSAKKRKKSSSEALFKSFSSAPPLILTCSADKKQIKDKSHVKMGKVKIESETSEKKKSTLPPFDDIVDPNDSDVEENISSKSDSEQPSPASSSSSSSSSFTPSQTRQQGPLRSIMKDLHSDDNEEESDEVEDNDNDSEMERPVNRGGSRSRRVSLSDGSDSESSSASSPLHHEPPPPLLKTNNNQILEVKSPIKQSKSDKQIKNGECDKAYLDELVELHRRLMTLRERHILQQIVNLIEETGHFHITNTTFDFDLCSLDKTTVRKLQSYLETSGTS
# Ecoli rRNA inh OD600: further read-out of Ecoli rRNA inh, marked with its call; OD600 change, %; measured here: OD600 growth;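 optical density of the mix in the first replicate; 0 = DMSO median and -100 = no signal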
# Ecoli rRNA inh RFP: also measured in Ecoli rRNA inh; calls as there; RFP signal change, %; measured here: RFP humanized mutant strains;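 first replicate; 0 = DMSO median and -100 = no signal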
# * marks the source's active call; other numbers are inactive results; i = inactive; . = no result given; + = active, no number. Not all compounds are listed; rates above refer to the full screens.
SMILES,T cruzi inh,UCH37 inh,FGF22 binding,Beta cell apopt,Bfl-1 A1 inh,Ecoli growth,Ecoli rRNA inh,Ecoli rRNA inh OD600,Ecoli rRNA inh RFP,AF4-AF9 inh
CCN(CC)S(=O)(=O)c1cc(C(=O)OC(C)C(=O)NCc2ccco2)ccc1C (centres undefined),.,7.4,i,10.4,-1.5,0.661,0.7,4.4,-1.3,-2.2
CCc1ccc(N(CC(=O)Nc2ccccc2C(=O)N2CCCC2)S(C)(=O)=O)cc1,-16.0,3.3,i,-1.1,1.1,0.653,.,.,.,0.1
Cc1ccc(CNC(=O)CCCn2c(=O)[nH]c3ccccc3c2=O)cc1,6.3,0.9,.,-3.8,1.5,0.722,.,.,.,.
Cc1ccc(NC(=O)c2ccccc2OCC(=O)Nc2ccccc2F)cc1S(=O)(=O)N(C)C,.,2.8,i,10.8,-1.3,0.656,1.2,11.3,2.1,-18.5
Cc1cc(C)n2c(SCC(C)C)nnc2n1,-29.5,2.4,i,.,-0.5,0.717,3.2,2.5,0.5,0.1
CCOC(=O)C1=C(c2ccccc2)O/C(=C(\C(=O)OC)C(F)(F)F)S1,16.7,2.1,.,-8.8,0.9,0.741,.,.,.,.
CCCCNC(=O)CSc1nc(CCC)nc2ccccc12,13.4,4.8,i,-4.5,0.2,0.651,-3.2,-4.3,1.7,-0.5
CCC(C)[C@H](NC(=O)C1CCC(CNC(=O)[C@@H]2CCCN2C(=O)OC(C)(C)C)CC1)C(=O)O (some centres undefined),-11.9,-0.6,i,-8.7,-0.1,0.66,10.0,13.9,1.6,-3.6
Cc1cc([N+](=O)[O-])ccc1N1C(=O)c2ccc(C(=O)Nc3ccccc3C(=O)O)cc2C1=O,-9.1,7.4,+,-5.9,-0.1,0.678,13.9,18.9,1.1,-2.4
O=C(CSc1nc2ccc(NC(=O)CSc3nnnn3Cc3ccccc3)cc2s1)Nc1ccccc1,-2.7,0.3,.,.,0.0,0.798,.,.,.,.
CCOc1cc(OCC)cc(C(=O)Nc2cccnc2)c1,8.5,-0.4,.,-3.9,-0.5,0.706,-0.8,-1.8,0.1,.
Cc1ccc(C)c(NC(=O)CN(C)C(=O)Cc2ccc(Cl)cc2Cl)c1,6.5,-0.4,i,-4.4,0.9,0.643,5.1,-1.1,-1.6,1.9
CCOC(=O)C1=C(COC(=O)c2cccs2)NC(=O)NC1C (centres undefined),-8.0,0.9,i,-0.1,-0.5,0.688,-0.4,-0.1,-2.3,14.0
N/C(=N\OC(=O)c1cccc([N+](=O)[O-])c1)c1cccnc1,-4.2,.,i,-2.9,-2.2,.,-1.3,8.4,5.4,1.0
COC(=O)CC1=NC(=O)CS1,-9.3,2.6,.,-9.2,-0.5,0.711,.,.,.,.
O=C(OCC(=O)c1c[nH]c2ccccc12)c1cc(S(=O)(=O)N2CCOCC2)ccc1F,.,4.3,i,1.3,-0.1,0.68,.,.,.,3.6
O=C(OCC(=O)N1CCN(C(=O)c2ccco2)CC1)c1cc(-c2cccc(Br)c2)nc2ccccc12,-5.1,-2.5,.,0.7,-0.8,0.722,.,.,.,.
Cc1cc(C(=O)Nc2ccon2)cs1,-11.4,5.2,i,3.5,-0.9,0.682,7.5,-0.5,-8.1,-0.4
O=C(COC(=O)c1ccc(F)cc1F)NCCNC(=O)COC(=O)c1ccc(F)cc1F,-6.0,-2.3,i,-5.3,0.2,0.7,14.3,14.3,-0.6,-1.5
Cc1cc(C)cc(NC(=O)N2CCCCCCC2)c1,14.7,2.0,i,-11.5,-0.6,0.693,1.9,1.5,-0.7,-1.6
CC(=O)Nc1ccc(C(=O)Cn2nnc3ccccc3c2=O)cc1,-6.1,1.5,.,-8.7,0.1,0.63,.,.,.,.
CCCCCNC(=O)c1cc(S(=O)(=O)N2CCCCC2)ccc1F,1.5,0.7,.,0.6,0.3,0.682,.,.,.,.
CCOc1ccc2c(c1)N(C(=O)CN1C(=O)CCC1=O)C(C)(C)C=C2C,-5.2,1.7,.,-1.2,0.1,0.769,.,.,.,.
O=C(Nc1ccc(S(=O)(=O)N2CCCCC2)cc1)c1ccc(CN2CCc3ccccc3C2)cc1,50.4,1.4,.,106.7*,-1.5,0.727,.,.,.,.
Cc1cccc(OCC(=O)NC2CCCCCC2)c1C,2.2,1.7,i,3.3,-0.9,0.67,5.2,11.7,0.3,0.0
N#Cc1cc(-c2ccccc2)nc(N2CCNCC2)n1,-0.4,-23.8,i,-7.3,-1.1,0.577,11.5,2.3,1.8,1.0
COC(=O)c1c(NS(=O)(=O)c2ccc(C)cc2)sc2c1CCC(C)C2 (centres undefined),.,-1.2,.,4.4,0.5,0.698,.,.,.,.
Cc1ccc(C)c(NC2=NS(=O)(=O)c3ccccc32)c1,-0.1,0.7,.,1.2,0.1,0.662,.,.,.,.
Cc1ccc(C(=O)NCCCNC(=O)c2ccco2)cc1,6.7,0.6,i,.,0.6,0.69,-0.1,5.1,0.7,-3.6
O=C(COC(=O)c1cccs1)NCCc1ccc(F)cc1,.,5.7,i,.,.,0.707,-5.7,-9.2,-0.3,-10.8
CCCCOCCCNC(=O)COc1ccccc1,-11.2,-1.2,i,-4.7,-0.1,0.659,1.4,-9.0,2.7,3.4
CCOC(=O)CN1CC23C=CC(O2)C(C(=O)O)C3C1=O (centres undefined),-17.7,0.6,i,-7.0,1.0,0.736,12.5,12.3,0.6,-4.9
CC(=O)c1ccc(NC(=S)NCC(c2ccco2)N2CCCC2)cc1 (centres undefined),15.3,6.5,i,-2.5,-1.3,0.642,18.9,16.2,2.2,-1.3
Cc1ccc(NC(=O)c2sc(C)nc2C)c(C)c1,-2.0,-0.9,i,1.8,-0.5,0.665,3.8,1.1,-2.4,4.5
Cc1c(O)nc(SC2CC(=O)N(c3ccccc3)C2=O)[nH]c1=O (centres undefined),-2.3,0.5,.,-0.7,0.1,0.714,.,.,.,.
CCCCN(CCCC)CCNC(=O)c1cn(CC)c2ccc(S(=O)(=O)N(C)C3CCCCC3)cc2c1=O,35.3,6.1,i,12.8,0.0,0.684,-9.4,-1.0,-7.1,6.6
CSc1ccc(CN2CCSCC2)cc1,-4.6,4.4,i,2.5,1.0,0.619,-3.4,1.0,-4.0,-7.9
CCN(Cc1ccccc1)C(=O)c1cc2c(OC)c(OC)c(OC)cc2[nH]1,-5.6,-2.0,i,-0.4,0.4,0.678,-5.8,-14.2,4.7,-13.0
Cc1ccccc1OCC(=O)NCC1CCCO1 (centres undefined),-3.9,-1.3,.,0.1,0.1,0.682,.,.,.,.
COc1ccc(CCNC(=O)c2cc3c(=O)n4ccccc4nc3n(CC3CCCO3)c2=N)cc1OC (centres undefined),24.2,-24.8,i,3.3,-0.6,0.742,-0.7,-6.9,0.5,0.4
Cc1ccc(Nc2ncnc3sc(C)c(C)c23)cc1C,-18.0,-0.9,.,3.2,0.5,0.714,.,.,.,.
CCOc1ccccc1NC(=O)CSc1nnc(-c2cnccn2)n1C,-13.1,0.6,.,-5.8,-0.6,0.754,.,.,.,.
O=C(NCCCN1CCOCC1)c1cccc(S(=O)(=O)Nc2ccccc2Cl)c1,-21.1,6.6,i,1.4,0.5,0.695,4.5,4.2,1.0,1.8
CCCc1cc(NCc2ccccn2)n2nc(C)c(-c3ccccc3)c2n1,54.6*,-58.9,i,49.3,0.5,0.678,-18.2,-18.8,-1.4,-3.0
O=C1CSC(=Nc2ccccc2)N1,1.3,-1.6,.,-4.3,-0.4,0.701,.,.,.,.
CCCCOc1ccc(/C=C/C(=O)OCC(=O)N2CC(=O)Nc3ccccc32)cc1OCC,13.1,-79.1,i,3.3,-0.7,0.704,6.3,2.1,-1.6,0.7
COc1cccc(CNC(=O)CCNC(=O)c2ccc(Br)o2)c1,-2.3,2.6,i,-8.8,-2.9,0.692,3.0,3.4,-0.1,-9.2
COc1ccc(-c2cc(C(=O)N3CCN(C(c4ccccc4)c4ccccc4)CC3)no2)cc1,35.7,-1.2,i,14.6,-0.4,0.762,11.5,2.6,1.1,-11.9
COc1ccc(C(=O)Nc2ccc(C(=O)N3CCOCC3)cc2)cc1OC,-14.4,4.5,i,.,-7.1,0.688,6.5,2.3,0.3,-2.3
CCOCCCn1c(SCC(=O)Nc2cc(OC)ccc2OC)nc2ccccc2c1=O,-4.1,1.4,.,.,-0.2,0.652,-12.3,-16.1,-5.8,-7.2

# Molecules from the list above containing two or more sulfur atoms, in the order listed:
SMILES,T cruzi inh,UCH37 inh,FGF22 binding,Beta cell apopt,Bfl-1 A1 inh,Ecoli growth,Ecoli rRNA inh,Ecoli rRNA inh OD600,Ecoli rRNA inh RFP,AF4-AF9 inh
O=C(CSc1nc2ccc(NC(=O)CSc3nnnn3Cc3ccccc3)cc2s1)Nc1ccccc1,-2.7,0.3,.,.,0.0,0.798,.,.,.,.
COC(=O)c1c(NS(=O)(=O)c2ccc(C)cc2)sc2c1CCC(C)C2 (centres undefined),.,-1.2,.,4.4,0.5,0.698,.,.,.,.
CSc1ccc(CN2CCSCC2)cc1,-4.6,4.4,i,2.5,1.0,0.619,-3.4,1.0,-4.0,-7.9

# Continued:
SMILES,T cruzi inh,UCH37 inh,FGF22 binding,Beta cell apopt,Bfl-1 A1 inh,Ecoli growth,Ecoli rRNA inh,Ecoli rRNA inh OD600,Ecoli rRNA inh RFP,AF4-AF9 inh
CC(=O)Nc1ccc(C(=O)N(C)C(C(=O)Nc2ccc(C)cc2)c2ccccn2)cc1 (centres undefined),11.3,3.7,i,-4.0,0.4,0.721,.,.,.,-0.6
C[C@@H](C(=O)NCc1ccccc1)[C@@H]1C[C@@]1(C)[C@@H](NC(=O)OCc1ccccc1)c1ccccc1,-18.6,4.9,i,.,0.3,.,-13.9,-19.4,-15.6,-2.7
COc1ccc(/C=C2\CCC/C(=C\C=N\N(C)C)C2=O)cc1,-20.8,.,i,-10.2,0.6,.,-19.6*,-2.5*,0.3*,5.5
CCCN1C(=O)CC(=O)N=C1SCC(=O)Nc1ccccc1F,.,.,i,-1.0,1.3,.,4.6,0.9,0.8,0.5
O=C(COC(=O)CNC(=O)c1ccc([N+](=O)[O-])o1)Nc1ncc(Cl)cc1Cl,.,6.0,i,-1.8,1.1,0.631,-12.0,4.2,-2.7,-2.6
Cc1cc(OCC(=O)Nc2ccncc2)c(C)cc1Br,-4.2,3.0,.,-8.1,0.0,0.672,-5.1,-20.3,-0.8,.
CCCCN(CC)S(=O)(=O)N1CCC(C(=O)NCCCN2CCOCC2)CC1,-0.7,-0.3,i,1.4,0.5,0.682,8.2,-0.9,4.8,0.4
CCCOc1ccc(/C(O)=C2/C(=O)C(=O)N(c3cc(C)on3)C2c2ccc(C(=O)OC)cc2)cc1 (centres undefined),-15.9,0.8,.,-2.0,-0.6,0.752,.,.,.,.
COc1ccccc1CC(=O)Nc1ccc([N+](=O)[O-])cc1O,-6.2,4.3,i,-1.7,0.3,0.672,-43.7,-50.9,-9.5,0.1
CCCC(=O)NCc1ccccc1Cl,1.1,-1.1,i,-3.2,0.1,0.672,23.0,12.3,2.0,-0.4
CCc1ccc(OCC(=O)OC(C)C(=O)Nc2ccc(Cl)cn2)cc1 (centres undefined),.,3.0,i,-2.2,0.6,0.654,1.8,1.7,-2.0,-7.4

# Bioassay records: PubChem BioAssay, several laboratories
